HNF4A DNA FP = change in binding of human HNF4 alpha to DNA; AID 1224865; P41235; activity change, % at 10 µM; 360,000 compounds, 0.3% hits; HNF4a-FITC DNA binding, fluorescence polarization, 1 h; in the data active = activity change above about 30%, passing the limit was not always enough;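 note: controls were the assay level and a saturating level of protein; the project sought stronger binding though the title names inhibitors; some compounds called inactive have numbers as strong as hits; positive values seem to mean higher polarization but the record does not say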
FGF22 binding = shifts melting point of recombinant human FGF22. Q9HCT0. recombinant FGF22 thermal shift, SYPRO orange fluorescence; percent of sucrose octasulfate shift, DMSO zero. calls only at 9.99 µM. 340,000 compounds, 1.5% hits;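 active = melting point raised past a set limit in the mean and every replicate; inconclusive = no clear call; three in four hits are not shown here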
Target sequence (Q9HCT0 whole entry, looked up): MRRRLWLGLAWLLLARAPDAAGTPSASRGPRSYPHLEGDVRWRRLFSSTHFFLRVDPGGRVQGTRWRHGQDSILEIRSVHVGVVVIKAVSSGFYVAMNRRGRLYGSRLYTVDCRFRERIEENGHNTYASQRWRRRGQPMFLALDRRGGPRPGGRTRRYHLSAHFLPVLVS
Vif TR-FRET = HIV-1 Vif–A3G interaction blockers – biochemical, TR-FRET, GST-Vif 1-94, biotin-A3G peptide, dose response retest, primary screen (AID 1117319) | inhibition, %; hits with a dose series show IC50 in µM | TR-FRET GST-Vif / biotin-A3G peptide binding; higher % means a stronger effect; test concentration not given here; strong numbers were not always called active | 260,000 compounds, 0.57% hits;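 active = above the screen mean plus three standard deviations and confirmed in dose response; inconclusive = results disagree or hit not tested in dose response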;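 note: Vif residues 1-94 fused to GST binding biotinylated APOBEC3G peptide 110-148; 0% = full assay without inhibitor and 100% = GST in place of GST-Vif; retest series ran down from 100 µM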
UCH37 DUB inh = human UCH37 deubiquitinating enzyme inhibition; 330,000 compounds, 0.33% hits; Q9Y5K5; purified proteasome/UCH37, Ub-AMC cleavage fluorescence; inhibition, % (concentration not given with the values); AID 588478;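 active = mean of two replicates above 20%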;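 note: 0% = compound-free wells with enzyme and 100% = wells lacking proteasome; stock transfer was 100 nL into about 20 µL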
Target sequence (Q9Y5K5 whole entry, looked up): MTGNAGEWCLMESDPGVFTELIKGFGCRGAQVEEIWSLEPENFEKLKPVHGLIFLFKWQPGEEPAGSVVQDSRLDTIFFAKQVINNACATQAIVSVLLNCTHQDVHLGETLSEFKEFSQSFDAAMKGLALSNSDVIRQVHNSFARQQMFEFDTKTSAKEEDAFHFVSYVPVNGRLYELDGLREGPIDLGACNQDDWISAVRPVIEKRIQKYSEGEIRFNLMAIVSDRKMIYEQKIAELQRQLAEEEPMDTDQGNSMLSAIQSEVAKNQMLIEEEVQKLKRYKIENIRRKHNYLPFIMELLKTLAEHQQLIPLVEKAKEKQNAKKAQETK
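Material: human UCH37 enzyme supplied as purified proteasome complex. Measure: % inhibition of Ub-AMC cleavage fluorescence. Medium: pH 7.4 Tris-HCl (50 mM) with ovalbumin, ATP-MgCl2, DTT. Times: 30 min preincubation with enzyme, 25 min cleavage at room temperature. Detection: AMC fluorescence intensity at 355/460 nm.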
RanGTP-Imp inh = inhibitors of RanGTP-importin-beta interaction, primary screen, biochemical, FRET, CFP-Ran, YFP-importin-beta, homogeneous | 300,000 compounds, 1.1% hits | inhibition, % (test concentration not listed) | cell-free CFP-Ran/YFP-importin-beta FRET ratio;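 active = most replicates above 15%; inconclusive = exactly half above 15%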;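 note: 0% = DMSO wells and 100% = Ran loaded with GDP instead of GTP; wells of about 40 µL received 100 nL stock; the first replicate is given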
MLL AF4-AF9 inh = blocks AF4 peptide binding to human AF9; AlphaScreen, biotin-AF4 peptide binding to FLAG-AF9; P42568; inhibition, % at 10 µM; 350,000 compounds, 0.47% hits;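 active = every replicate reaching a set inhibition limit, whatever the replicate mean, cut at about 25% in these data; inconclusive = mean inhibition reaches that limit but some replicates miss it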;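 note: 0% = plate neutral control median and 100% = total signal loss; the record names both 10 and 1 µM as test concentration; the first replicate is given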
Target sequence (P42568 whole entry, looked up): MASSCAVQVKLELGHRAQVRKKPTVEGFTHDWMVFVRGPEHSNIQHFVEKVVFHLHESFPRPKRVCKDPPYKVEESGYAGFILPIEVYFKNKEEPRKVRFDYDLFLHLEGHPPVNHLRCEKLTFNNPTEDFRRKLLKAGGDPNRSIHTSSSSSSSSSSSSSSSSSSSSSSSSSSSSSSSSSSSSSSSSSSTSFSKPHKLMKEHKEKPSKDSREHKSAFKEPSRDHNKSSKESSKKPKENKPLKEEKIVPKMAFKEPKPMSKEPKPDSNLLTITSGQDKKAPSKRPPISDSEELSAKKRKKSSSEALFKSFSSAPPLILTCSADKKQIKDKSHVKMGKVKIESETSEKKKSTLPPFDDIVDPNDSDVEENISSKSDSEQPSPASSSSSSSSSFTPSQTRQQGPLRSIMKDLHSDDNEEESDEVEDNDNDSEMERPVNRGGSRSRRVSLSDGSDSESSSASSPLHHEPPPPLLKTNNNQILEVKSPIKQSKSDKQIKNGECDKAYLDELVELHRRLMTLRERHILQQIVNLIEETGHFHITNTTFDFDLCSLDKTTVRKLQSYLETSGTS
Ecoli growth = E. coli growth inhibition; Escherichia coli growth, OD600, 23 h; active compounds read low; 330,000 compounds, 0.21% hits; AID 1053175; OD600 absorbance (concentration not given with the values);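 active = OD600 absorbance below the run mean of sample wells minus 3.6 SD, in any replicate, cut at about 0.56 in these data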;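 note: stock transfer was 300 nL into about 60 µL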
Numbers without * were called inactive; i = inactive; ? = inconclusive; / = no result given; & = joins results of further samples. Some of the compounds tested; rates above refer to the full screens.

Molecule	HNF4A DNA FP	FGF22 binding	Vif TR-FRET	UCH37 DUB inh	RanGTP-Imp inh	MLL AF4-AF9 inh	Ecoli growth
CCCc1cc(=O)[nH]c(SCC(=O)N2c3ccccc3CC2C)n1 (stereo not drawn)	-2.2	i	/	2.5	/	-31	0.7
Fc1ccc(C2CC(c3cccs3)=NN2C(=S)Nc2ccccc2)cc1 (stereo not drawn)	-2.5	/	-9%	2.1	3.0	/	0.71
Brc1ccc(-c2c[n+]3c(n2-c2ccccc2)SCC3)cc1	4.3	i	2%	4.5	-1.6	-3.3	0.67
COc1ccc(N2CCN(C(=O)c3ccc(NS(=O)(=O)c4cccc(F)c4)cc3)CC2)cc1	-4.1	/	10%	1.6	5.5	/	0.7
Cc1cccc(C2=NN(c3ccccc3)[C@H](CO)[C@H]2c2ccc(Cl)cc2)c1	14	i	-5%	i	/	-44	0.74
CCOC(=O)N1CCN(CC(O)COc2ccccc2C(C)(C)C)CC1 (stereo not drawn)	0.9	i	-4%	1.7	2.9	-0.8	0.68
Cc1ccc(/C=N\NC(=O)c2cc([N+](=O)[O-])cc([N+](=O)[O-])c2)o1	2.2	/	20%	/	-4.6	/	/
CC(C)COc1ccc(S(=O)(=O)n2cc(F)c(=O)[nH]c2=O)cc1	0.6	i	-11%	4.7	-1.4	-2.6	0.67
Cc1nn(CC(=O)O)c(C)c1NC(=O)c1cccs1	-0.8	i	/	3.4	2.8	-2.9	0.71
Cc1noc(C(=O)NCc2cccnc2)c1Cl	1.9	i	29%	2.3	3.9	-5.1	0.7
Cc1ccccc1N(Cc1nnc2n1CCCCC2)C(=O)Nc1ccccc1	12	/	-2%	0.1	-0.7	/	0.72
CN1CCN(C(=O)c2ccc3c(=O)n4c(nc3c2)CCCCC4)CC1	0.8	/	7%	0.4	6.9	/	0.8
COCCCN1C(=O)C(CC(=O)NCCN2CCOCC2)CC(C(=O)N(C)C)=C1C (stereo not drawn)	-1.7	i	/	/	/	-5.1	/
COc1ccc2oc(=O)c(C(=O)N3CCc4ccccc43)cc2c1	-3.7	/	-2%	-1.3	1.4	/	0.68
COc1cccc(NC(=O)C(=O)NCC2CCCN2S(=O)(=O)c2cccs2)c1 (stereo not drawn)	1.1	i	1%	/	/	2.2	/
COC(=O)c1ccc(/C=N/NS(=O)(=O)c2cc(C)ccc2C)cc1	2.4	/	-2%	/	4.8	/	/
COC(CNC(=O)c1ccc2nc(-c3cccs3)c(-c3cccs3)nc2c1)OC	-1.3	i	/	-58	43*	2.3	0.71
O=C(c1ccco1)N(Cc1ccc([N+](=O)[O-])cc1)c1ccc(Cl)cc1	2.3	/	72%	1.8	0.1	/	0.69
CC(C)CN(C(=O)c1ccc(C(F)(F)F)cc1)c1c(N)n(CC(C)C)c(=O)[nH]c1=O	6.0	i	/	-3.8	4.4	-11	0.64
O=C1c2ccccc2S(=O)(=O)c2cc(C(=O)N3CCC(O)CC3)ccc21	-0.9	i	/	5.2	-0.2	2.0	0.66
CC(=O)Nc1ccc(NC(=O)C(C)OC(=O)c2ccc(N(C)C)cc2)cc1 (stereo not drawn)	1.6	i	0%	5.4	1.9	0.6	0.7
NC(=O)c1ccc(NC(=O)COC(=O)C23CC4CC(CC(C4)C2)C3)cc1	2.0	i	-2%	/	/	-2.7	/
CCOC(=O)N1CCC(N(CCN(C)C)C(=S)Nc2cc(Cl)ccc2C)CC1	-0.3	i	-4%	1.7	3.4	-7.7	0.68
COc1cccc(C2(c3cccc(OC)c3)CC2C(=O)Nc2ccc(F)cc2)c1 (stereo not drawn)	-3.0	i	/	1.6	-0.3	1.3	0.72
Cc1cccc(OCCC(=O)OCC(=O)Nc2c(C)nn(-c3ccccc3)c2C)c1	-1.0	i	-7%	-0.2	-1.1	7.3	0.63
CCc1cccc(NC(=O)CN(c2ccc(C)cc2)S(=O)(=O)c2c(C)noc2C)c1	4.3	i	1%	-0.7	-1.6	0.5	0.71
COc1ccc(NC(=O)c2cn(-c3ccccc3)nc2-c2cc3ccccc3o2)cc1	-3.4	/	-4%	6.1	1.8	/	0.73
O=c1[nH]c2ccccc2n1CCCN1CCCCC1	-0.5	/	-4%	-1.8	5.9	-3.1	0.7
COc1cccc(Nc2nc(Nc3ccc(Cl)c(C(=O)O)c3)nc(C)c2[N+](=O)[O-])c1	-2.6	i	/	8.9	/	2.0	0.72
Cc1ccc(/C=N/NC(=O)c2ccncc2)o1	-6.1	i	14%	/	8.4	-0.1	/

Entries shown so far that contain two or more sulfur atoms, in the order listed:
Molecule	HNF4A DNA FP	FGF22 binding	Vif TR-FRET	UCH37 DUB inh	RanGTP-Imp inh	MLL AF4-AF9 inh	Ecoli growth
Fc1ccc(C2CC(c3cccs3)=NN2C(=S)Nc2ccccc2)cc1 (stereo not drawn)	-2.5	/	-9%	2.1	3.0	/	0.71
COc1cccc(NC(=O)C(=O)NCC2CCCN2S(=O)(=O)c2cccs2)c1 (stereo not drawn)	1.1	i	1%	/	/	2.2	/
COC(CNC(=O)c1ccc2nc(-c3cccs3)c(-c3cccs3)nc2c1)OC	-1.3	i	/	-58	43*	2.3	0.71

Following part
Molecule	HNF4A DNA FP	FGF22 binding	Vif TR-FRET	UCH37 DUB inh	RanGTP-Imp inh	MLL AF4-AF9 inh	Ecoli growth
CCCCN1C(=O)NC(c2ccc(OC)cc2)C(C(=O)OCc2ccccc2)=C1C (stereo not drawn)	-3.1	i	/	1.0	0.0	-2.9	0.72
CCOc1ccccc1OCCCOc1ccc(C)cc1Cl	3.0	/	-4%	1.4	1.4	/	0.7
O=C(c1ccc2c(=O)n(Cc3ccc(Cl)cc3)c(=S)[nH]c2c1)N1CCCC1	0.7	i	/	-2.0	3.1	2.0	0.66
CCOC(=O)C(C(=O)Nc1ccc(C)cc1)C1CCCCC1 (stereo not drawn)	-2.0	/	14%	1.2	-1.2	/	0.66
CCOC(=O)N1CCN(Cc2cc(=O)oc3ccc4ccccc4c23)CC1	1.4	/	-1%	/	3.0	/	0.7
O=C(COc1ccc(F)cc1)Nc1cc(Cl)ccc1-n1cncn1	-0.2	i	-7%	-0.6	/	-0.9	0.64
Cc1nc(C(=O)N2CCC(C)(C(=O)NS(=O)(=O)C3CC3)C2)c(C)o1 (stereo not drawn)	-2.9	i	/	/	/	0.1	/
Cc1cc(=O)n(Cc2ccccc2)c2ccccc12	1.2	i	-5%	5.7	-2.5	-0.6	0.64
COc1ccc(-c2nc3c(s2)CCc2onc(-c4ccc(OC)cc4)c2-3)cc1	0.3	i	/	-4.0	-1.3	6.1	0.78
CCOc1ccc(NC(=O)CCSc2ccc(C)cc2)cc1	4.6	/	-4%	/	2.3	/	/
CCC(C)(C)n1nnnc1C(c1ccc(C)cc1)N1CCN(C(=O)c2ccco2)CC1 (stereo not drawn)	0.1	/	7%	-1.4	3.5	/	0.69
FC(F)Oc1ccc(N=C2SCC3CCCCN23)cc1 (stereo not drawn)	-7.2	i	/	2.1	-0.2	-2.2	0.66
O=S(=O)(c1cccc(Cl)c1)N1CCCC1	1.9	i	4%	-1.4	?	1.4	0.79
CCN1CCN(c2ccc(NC(=O)COc3ccc([N+](=O)[O-])cc3)cc2)CC1	2.4	i	/	5.7	1.1	4.1	0.7
CC(=O)SCC(=O)N=c1sc2cc(F)ccc2n1C	-1.9	/	-5%	1.4	6.7	/	0.7
COc1ccccc1C(CC(=O)Nc1ccc(Cl)cc1)c1ccc(OC(C)C)cc1 (stereo not drawn)	-1.2	/	/	1.4	0.8	/	0.64
Cc1nn(-c2ccccc2)c(C)c1/C=N/NC(=O)c1cnccn1	-7.0	i	?	/	9.5	-0.5	/
COc1ccccc1/C=C/C=N/NC(=O)c1ccc(=O)n(C)c1	0.0	/	-5%	/	-0.3	/	/
C=CCC[C@@H](Cc1ccc(F)cc1)C(=O)OC[C@H](Cc1c[nH]c2ccccc12)NC(=O)[C@@H](CC=C)CC(=O)NCCO	-5.8	i	/	-0.4	/	2.9	/
Nc1ccc(Oc2ccc3nc(-c4ccccc4)c(-c4ccccc4)nc3c2)cc1	/	/	1%	5.4	7.2	/	0.76
Cc1nc(Cl)sc1C(=O)Nc1ccccc1Cl	0.2	i	/	1.3	4.0	-4.5	0.7
COc1ccc(NC(=O)COC(=O)C2CCN(S(=O)(=O)c3cccs3)CC2)cc1	-3.5	i	3%	1.0	?	6.8	0.68
C/C(=C\c1ccccc1)C(=O)Nc1nc2ccc([N+](=O)[O-])cc2s1	-2.4	i	-2%	4.6	7.2	5.6	0.7
CCc1ccccc1NC(=O)CN(c1cccc(OC)c1)S(C)(=O)=O	-0.4	/	-2%	5.2	2.0	/	0.66
O=[N+]([O-])c1cccc(Cn2cnc3c(=S)nc[nH]c32)c1	7.0	i	3%	1.5	/	-0.1	0.74
Cc1ccc(N=Nc2ccc(C)cc2NC(=O)Nc2ccccc2F)cc1	-0.7	i	-4%	11	-1.7	0.9	0.69
COc1ccc(C(=O)Nc2ccc3oc(-c4cccc(Cl)c4)cc(=O)c3c2O)cc1	1.0	/	5%	5.1	1.9	/	0.63
CC(C)(C)C(=O)Nc1ccc(-c2nnc3n2CCCCC3)cc1	1.7	i	2%	-0.5	-1.4	-0.7	0.71
COCCCNC(=O)Cn1nnc(-c2ccc(NC(=O)c3ccccc3OC)cc2)n1	3.2	/	-8%&-9%	-22	6.9	/	0.7
COc1cc(SC)ccc1C(=O)NCCOc1ccc(F)cc1	-5.2	i	9%	1.2	6.1	-5.5	0.67
CC(C)(C)c1ccc(CN2N=C(/C=C/c3ccccc3)CCC2=O)cc1	-1.7	i	12%	0.4	3.9	-0.6	0.68
COc1ccc(CN(C)C(=O)Cn2cnc(C(=O)Nc3ccc(C)c(C)c3)n2)cc1OC	-2.3	i	/	-1.1	/	-1.9	0.67
Cc1ccc(N2CSC3=C(C#N)C(c4cccs4)CC(=O)N3C2)cc1 (stereo not drawn)	-3.5	i	>100µM*	6.5	5.5	-0.7	0.73
CN(c1cnn(-c2ccccc2)c(=O)c1Cl)n1cccc1	-0.1	i	1%	5.5	-1.4	-0.2	0.67
CCOc1cccc(OCCCOc2cccc3cccnc23)c1	2.1	/	1%	-3.5	1.6	/	0.67
CCOC(=O)C1CCN(C(=O)c2cccc(Cl)c2)CC1	-0.9	/	-3%	0.3	1.6	/	0.69
OC(c1cc(Cl)cc(Cl)c1)c1ncc(-c2ccccc2C(F)(F)F)[nH]1 (stereo not drawn)	-1.2	i	/	/	/	3.8	/
C=C(C)Cn1c2ccc(NC(=O)CCOCC)cc2c(=O)n1C	-0.9	i	/	/	/	-0.6	/
COc1cccc(C2CC(c3c(Cl)cccc3Cl)n3nc(N)nc3N2)c1 (stereo not drawn)	0.6	i	15%	1.1	-1.4	0.4	0.77
CCOC(=O)C1CCCN(CC(O)COc2ccc(OC)cc2C(C)(C)C)C1 (stereo not drawn)	-2.5	/	0%	-1.3	-3.9	/	0.67
CC1(C)CC(=O)C=C(c2ccc(F)cc2OCc2ccccc2)C1	1.9	i	/	-1.5	/	-1.5	0.69
CCCc1cc(=O)oc2cc(C)cc(OCC(=O)N3C[C@H]4C[C@@H](C3)c3cccc(=O)n3C4)c12	-2.9	i	/	/	/	-0.3	/
COc1ccc(CC(N)c2csc(NC(=O)NCCc3ccc(OC)c(OC)c3)n2)cc1 (stereo not drawn)	3.9	i	/	/	/	12	/

Assay outcomes: PubChem, several laboratories
